Screening data deposited in PubChem BioAssay by Sanford-Burnham Center for Chemical Genomics.
HNF4A DNA FP: change in binding of human HNF4 alpha to DNA; AID 1224865; 360,000 compounds, 0.3% hits; activity change, % at 10 µM; HNF4a-FITC DNA binding, fluorescence polarization, 1 h; P41235; in the data active = activity change above about 30%, passing the limit was not always enough;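 note: controls were the assay level and a saturating level of protein; the project sought stronger binding though the title names inhibitors; some compounds called inactive have numbers as strong as hits; positive values seem to mean higher polarization but the record does not say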
Target sequence (P41235 whole entry, looked up): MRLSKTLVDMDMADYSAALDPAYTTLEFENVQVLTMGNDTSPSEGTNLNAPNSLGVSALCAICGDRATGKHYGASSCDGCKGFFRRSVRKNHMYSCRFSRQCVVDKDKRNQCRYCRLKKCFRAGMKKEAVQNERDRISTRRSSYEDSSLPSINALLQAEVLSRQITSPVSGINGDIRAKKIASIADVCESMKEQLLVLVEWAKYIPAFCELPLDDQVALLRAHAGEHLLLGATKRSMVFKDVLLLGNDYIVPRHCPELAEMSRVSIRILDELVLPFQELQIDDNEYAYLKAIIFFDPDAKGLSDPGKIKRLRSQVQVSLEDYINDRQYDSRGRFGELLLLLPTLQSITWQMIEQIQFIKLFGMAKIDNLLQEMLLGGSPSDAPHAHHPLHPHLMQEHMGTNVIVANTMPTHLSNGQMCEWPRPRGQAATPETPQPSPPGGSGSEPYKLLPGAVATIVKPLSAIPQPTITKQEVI
An asterisk follows results filed as active. Only part of the results is shown. The share of hits here may be higher or lower than overall.

Structure,HNF4A DNA FP
COc1ccc(-c2nc3c(C)cc(Br)cn3c2Cc2ccc(C)cc2)cc1OC,-0.5
COc1ncc(-c2ccc(N3C(c4ccc([N+](=O)[O-])cc4)=Cc4ccccc4C3CC(C)=O)cc2)cn1 (stereo not given),5.0
CCCCN(CCCNC(=S)NCCCc1cnc[nH]1)c1ccc(Br)cn1,-3.0
CC(=O)N1CCCC(C)(C(=O)Nc2ccc3nc(C)ccc3c2)C1 (stereo not given),0.0
C=CCN(CC=C)Cc1cc(=O)oc2cc(C)cc(C)c12,5.4
CC1(C(=O)Nc2ccccc2Br)CCN1C(=O)Cc1ccc(Cl)cc1Cl (stereo not given),5.2
COc1ccc(C(C)(NC(C)=O)c2nc(-c3ccccc3OC)cs2)cc1 (stereo not given),-2.2
COc1ccc(NC(=O)C2Cc3c(-c4cccc(C(N)=O)c4)ccnc3O2)cc1 (stereo not given),0.9
COc1cccc(CNC(=O)[C@@H]2CCCN2C(=O)[C@@H]2CCCN2C(=O)c2cccc(Cl)c2)c1,0.2
CC(C)NC(=O)c1cc(-c2ccc(F)cc2OC(C)C)n[nH]1,2.2
COCCNC(=O)C1(C)CCCN(Cc2ccc(OCc3ccccc3)cc2)C1 (stereo not given),-1.4
COc1ccc([C@H]2C[C@@H](n3cc(C4CC4)nn3)[C@H](O)CN2C(=O)c2cccs2)cc1,-4.0
O=C(NCCS(=O)(=O)N1CCN(C(=O)c2ccco2)CC1)c1ccccc1,0.5
COc1ccc(C(C(=O)Nc2ccc3c(c2)OCCO3)n2c(=O)c(-c3cc4ccccc4[nH]3)nc3ccccc32)cc1 (stereo not given),2.9
COc1cccc(Nc2nc(CN)cs2)n1,0.9
Cc1ccccc1NC(=O)Cc1nc(COC(=O)c2nccnc2N)cs1,2.2
CC1(C(=O)NS(=O)(=O)c2ccc(Br)cc2)CCN1C(=O)C1CCCCC1 (stereo not given),0.6
CC(=O)Nc1cncc(-c2cccc(N(C)C)c2)n1,4.3
CCOc1ccc(-c2noc([C@@H]3O[C@H](CO)[C@@H](O)[C@H]3O)n2)cc1,1.6
Cc1ccc(S(=O)(=O)N2C[C@H]3[C@H]4C(=O)N(Cc5ccccc5)C(=O)[C@H]4CC(=O)[C@H]3[C@@H]2c2ccccc2F)cc1,0.0
Clc1cccc(CNc2ccn3nc(-c4cccc(OCc5ccccc5)c4)cc3n2)c1,-1.7
CC(C)C[C@H]1CNC(=O)C(=O)N1C[C@@H]1CCCN1C[C@H](Cc1ccccc1)N1C[C@H](Cc2ccccc2)N(CC2CCCCC2)C(=O)C1=O,-1.0
O=C1NC[C@@H](CCCCN2C[C@H](Cc3ccccc3)N(CCc3ccc(O)cc3)C(=O)C2=O)N(Cc2ccccc2)C1=O,-4.2
COC(=O)c1ccc(N2C(c3cccc(OC)c3)=Cc3ccc(F)cc3C2c2c(C)[nH]c3ccccc23)cc1 (stereo not given),3.4
CC1(Oc2cccc(F)c2)CCN(Cc2ccc3ccccc3c2)C1 (stereo not given),-0.3
CCc1nc2ccc(C(=O)Nc3cc(-c4ccccc4)ccc3OC)cn2c1N(CC)Cc1cccc(Br)c1,1.1
C[C@@H]1CC2=C(C(=O)OC(C)(C)O2)[C@H](c2ccc(F)cc2)O1,1.2
CCCc1c(-c2ccccc2)ncn1Cc1ccccc1OC,1.2
COC(=O)c1ccc2nc(-c3cccc(Br)c3)c(Cc3ccccc3OC)n2c1,6.0
C=Cn1cc(CNC[C@H]2O[C@@H](n3cnc4c(=O)[nH]c(N)nc43)[C@H](O)[C@@H]2O)c(C)n1,-5.1
CN1CCN(C(=O)c2cc3c(c(-c4cccc(-c5cc6ccccc6o5)c4)n2)[C@@H](CCO)N(S(=O)C(C)(C)C)C3)CC1 (stereo not given in full),2.6
COc1ccc(-c2nc3c(Cl)cc(C(F)(F)F)cn3c2Cc2cccc(F)c2)cc1OC,5.0
CCOC(=O)c1sc2nc(OCCN3CCOCC3)cc(C)c2c1N,-5.0
NC(c1csc(Nc2ncccn2)n1)c1ccccc1Cl (stereo not given),1.6
Cc1cccc(C)c1NC(=O)C(C1CC1)n1c(=O)c(-c2ccccc2)nc2ccccc21 (stereo not given),-0.4
O=C1c2cccc(-c3ccc(C(F)(F)F)cc3)c2C2CC=CCN12 (stereo not given),-2.2
COc1cc2oc(=O)cc(CN(Cc3ccccc3)Cc3ccccc3)c2cc1Cl,2.1
CCc1nc2c(OCC(=O)C(C)(C)C)cccn2c1N(C)C(=O)C1CC1,1.2
COCCC(=O)N1CCOCC1c1cc(C(=O)NCc2ccccc2)no1 (stereo not given),1.5
Nc1nc2c(ncn2[C@@H]2O[C@H](CNC(=O)[C@H](N)Cc3cncn3COCc3ccccc3)[C@@H](O)[C@H]2O)c(=O)[nH]1,-2.5
CCCCCCCCN1C(=O)[C@H](CC(=O)NCc2ccccc2)C[C@@]2(C(=O)OCC)CCCC=C12,3.6
COc1ccc(S(=O)(=O)NC(=O)C2(C)CCN2C(=O)CCc2ccc(Cl)cc2Cl)cc1 (stereo not given),1.9
Cc1cccc(N2CCN(C(C(=O)NCc3ccccc3)c3ccc(C(F)(F)F)cc3)CC2)c1C (stereo not given),0.8
COc1ccc(S(=O)(=O)N2CCOCC2)cc1NC(=O)C1CC(=O)N(c2ccc3c(c2)OCCO3)C1 (stereo not given),1.8
COCCNC(=O)c1cccc2c(-c3cnn(C)c3)coc12,-6.4
COc1cc(OC)cc(-c2c(Sc3ccccc3)c3cc(-c4ccc5c(c4)OCCO5)ccc3n2C)c1,-0.9
O=c1[nH][nH]c2c1[C@H](C1CCCC1)O[C@H](CCc1ccccc1)C2,-1.0
Cc1ccc2nc(-c3ccc(Cl)cc3)c(CC3CCCCC3)n2c1,5.3

Rewritten with values ahead of the structure: 6 of the compounds above.
HNF4A DNA FP	SMILES
-0.4	Cc1cccc(C)c1NC(=O)C(C1CC1)n1c(=O)c(-c2ccccc2)nc2ccccc21 (stereo not given)
-5.0	CCOC(=O)c1sc2nc(OCCN3CCOCC3)cc(C)c2c1N
1.5	COCCC(=O)N1CCOCC1c1cc(C(=O)NCc2ccccc2)no1 (stereo not given)
0.8	Cc1cccc(N2CCN(C(C(=O)NCc3ccccc3)c3ccc(C(F)(F)F)cc3)CC2)c1C (stereo not given)
5.3	Cc1ccc2nc(-c3ccc(Cl)cc3)c(CC3CCCCC3)n2c1
0.6	CC1(C(=O)NS(=O)(=O)c2ccc(Br)cc2)CCN1C(=O)C1CCCCC1 (stereo not given)

Going on with the list.
Structure,HNF4A DNA FP
Cc1cn([C@H]2C[C@H](O)[C@@H](CNC(=O)[C@H](N)Cc3cscn3)O2)c(=O)[nH]c1=O,-3.7
OC(c1ccc(F)c(F)c1)c1ncc(-c2cccc(F)c2)[nH]1 (stereo not given),4.2
COc1ccc(CNC(=O)c2cccc3c(-c4cccnc4)coc23)cc1OC,-0.5
COC(=O)[C@]1(Sc2ccc(C)cc2)CC(=O)N[C@@H]1c1ccccc1,-1.2
COc1ccc(F)cc1-c1cc(C(=O)NCc2ccccc2)[nH]n1,-2.1
COc1ccc(-c2sc3cc(OC)ccc3c2-c2ccc(OCCN3CCCCC3)cc2)cc1,-1.9
COc1cc(OC)cc(C2=Cc3ccccc3C(CC(=O)c3ccco3)N2c2ccc(-c3cnc(OC)nc3)cc2)c1 (stereo not given),0.9
CCNC(=O)C1(C)CCN(Cc2ccc(OC(F)(F)F)cc2)C1 (stereo not given),-1.1
N#Cc1ccc(C(=O)N2CCCCC2c2cc(C(=O)Nc3ccc4c(c3)OCO4)no2)cc1 (stereo not given),-0.5
CC(O)(c1cccc(F)c1)c1nc(-c2ccccc2)cs1 (stereo not given),-9.2
CC1=C(C(=O)N(C)C)CC(CC(=O)NCCCN(C)C)C(=O)N1CCCN1CCCC1=O (stereo not given),2.6
CC(C)CC1OC(C)Cc2[nH][nH]c(=O)c21 (stereo not given),2.4
Cc1ccc(Cc2c(-c3cccc(Cl)c3)nc3c(C)cc(Br)cn23)cc1,-0.9
CC1(C(=O)Nc2ccc3c(c2)OCCO3)CN(S(C)(=O)=O)CC(=O)N1CC(F)(F)F (stereo not given),2.4
CCOC(=O)C1CCCN(C(=O)c2cccc(Cl)c2)CC1 (stereo not given),-0.8
C[C@@H]1CN([C@@H](C)CO)C(=O)c2cc(Br)cnc2O[C@@H]1CN(C)Cc1cncnc1,1.0
Cc1cccc(C)c1NC(=O)Nc1nc(CN(C)C)cs1,2.3
CCCS(=O)(=O)NC(=O)C1(C)CCCN(C(=O)c2cc(-c3ccccc3)cs2)C1 (stereo not given),3.6
CCOC(=O)C1C(C)C(C(C)(C)C)N(S(=O)(=O)c2ccc(C)cc2)C1c1ccccc1 (stereo not given),-0.5
CC1(C(=O)Nc2ccc3c(c2)OCCO3)CN(S(C)(=O)=O)CC(=O)N1Cc1cccs1 (stereo not given),0.8
O=S1(=O)N[C@H](Cc2ccccc2)COc2cccc(N3CCC[C@@H]3CO)c21,2.4
CCOC(=O)[C@]12CCC=C1N(Cc1ccc3c(c1)OCO3)C(=O)[C@H](CC(=O)NCC1CCCCC1)C2,3.7
c1cc(-c2ccsc2)n2ccnc2c1,-1.3
C=C1[C@@H](OC(C)=O)C=C[C@@]2(C)C=CC(=O)[C@@](C)(OC(C)=O)[C@@H]2[C@@H](OC(C)=O)[C@]2(O)[C@@H](C)C(=O)O[C@H]2[C@H]1Cl,1.2
Cc1cc(O)ccc1Nc1cc(-c2cccc(N(C)C)c2)ncn1,6.6
CCOC(=O)[C@]12Cc3c(cc(OC)c(OC)c3OC)[C@H]1N(Cc1ccccc1)C(=O)c1cc(F)c(F)cc12,-3.1
Brc1cccc(-c2nc3ccc(Br)cn3c2Cc2ccccc2)c1,24
CCC(CC)C(=O)N(C)c1c(C)nc2c(OCc3ccc(Cl)cc3Cl)cccn12,-1.5
O=C(Nc1ccc2c(c1)OCCO2)C(c1ccccc1)n1c(=O)c(-c2ccco2)nc2ccccc21 (stereo not given),16
CC(C)(C)c1ccc(S(=O)(=O)NC(=O)C2(C)CCN2C(=O)Cc2ccc(-c3ccccc3)cc2)cc1 (stereo not given),-2.3
CCOC(=O)C1=C[C@@H](CC)N(S(=O)(=O)c2ccc(C)cc2)[C@H]1c1ccccc1,2.8
CCCCN(C=O)c1c(CC)nc2ccc(C(=O)NCc3ccccc3OC)cn12,2.6
N#CCCCc1cn(-c2nc3ccccc3s2)nn1,1.0
C=C1C2=C(C(=O)N1OC)[C@@H](O)[C@@](C)(O)[C@@H](CCCCC)O2,1.8
OCCNc1ncnc2c1ncn2[C@H]1CN(C2CCCC2)C[C@@H](CO)O1,-0.5
CC1(C(=O)NCc2cccc3ccccc23)CCN1Cc1cccc2c1OCO2 (stereo not given),2.5
COC(=O)[C@]12CCCCC=C1N(Cc1cccc3ccccc13)C(=O)[C@H](CC(=O)N1CCCCC1)C2,-0.1
CCc1ccc(C(O)c2ncc(-c3ccc(Cl)cc3)[nH]2)cc1 (stereo not given),1.3
CC1(C)OC(=O)C2=C(C[C@@H](CCOCc3ccccc3)O[C@H]2c2ccc(F)cc2)O1,-3.8
CC(C)CNC(=O)C1(C)CCCN1C(=O)C(C)(C)Oc1ccc(Cl)cc1 (stereo not given),0.9
CC(C)C[C@H]1CN([C@@H](Cc2ccc(O)cc2)CN2CCC[C@@H]2CN2C(=S)NC[C@@H]2Cc2ccccc2)C(=S)N1CC1CCCCC1,2.2
CCOC(=O)[C@]12CCC=C1N(CCC1=CCCCC1)C(=O)[C@H](CC(=O)NCCCN1CCCC1=O)C2,14
O=C(NC1CCCCC1)C(c1ccnc2ccccc12)N1CCOCC1 (stereo not given),6.1
C[C@@H]1CN([C@@H](C)CO)C(=O)CCCn2nncc2CO[C@H]1CN(C)C(=O)c1ccc(N2CCN(C)CC2)cc1,-1.7
O=C1NC[C@H](CCCCN2C[C@H](Cc3ccccc3)N(CCc3ccccc3)C(=O)C2=O)N(CC2CCCCC2)C1=O,-4.8
O=C(Nc1ccc2c(c1)OCCO2)C(CCc1ccccc1)N1CCN(c2ccc(F)cc2)CC1 (stereo not given),-1.4
Clc1cccc(-c2ccc3nccn3c2)c1Cl,-7.5
Cc1ccc(C)c(N2CCN(C3C(=O)Nc4ccccc4-n4nnnc43)CC2)c1 (stereo not given),4.9
O=C(Nc1ccc(C(=O)O)cc1)/C(=C\c1ccco1)NC(=O)c1ccc(Br)cc1,-0.5
Clc1ccc2nc(-c3ccccc3)c(CC3CCCCC3)n2c1,-2.9
O=C(COC(=O)c1ccc(F)cc1F)Nc1ccc(S(=O)(=O)N2CCOCC2)cc1,6.4
Cc1cc(C)n2c(NC3CCCCC3)c(-c3cccnc3)nc2n1,1.0
Nc1ccn([C@@H]2O[C@H](C(=O)N3CCCN(Cc4ccccc4F)CC3)[C@@H](O)[C@H]2O)c(=O)n1,3.8
COc1cccc(CNC(=O)[C@@H]2CCCN2C(=O)[C@@H]2CCCN2C(=O)c2ccc(Cl)cc2)c1,-3.1
COc1ccc(-c2cc(NC=O)c3ncc(-c4cnn(C)c4)n3c2)cc1,1.0
COc1ccc(-c2nc3c(C)cc(Br)cn3c2CC(C)(C)C)cc1OC,0.8
COc1ccc(NC(=O)c2cc(-c3cc(Cl)ccc3OC)n[nH]2)cc1OC,-2.4
CCOC1=C2[C@@H](CN(S(=O)(=O)c3ccc(C)cc3)[C@H]2c2ccc(CC)cc2)[C@H]2C(=O)N(c3ccccc3)C(=O)[C@H]2C1,-1.2
